UUG fidelity: modulators of start codon recognition fidelity in yeast; actives 0.13% (n = 350,000); activity score, % at 18.7 µM; AID 602363; S. cerevisiae UUG-firefly luciferase reporter, luminescence/redox ratio;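 active means replicate mean at a twofold rise or more, about +100% in these data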;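 further: firefly luciferase made from a UUG start codon reports start codon fidelity; reporter light over untreated wells divided by growth signal over untreated wells; some hits fall short of that in this replicate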
eIF4H FP inh: inhibitors of RNA binding by human eIF4H; actives 0.94% (n = 290,000); eIF4H fluorescence polarization binding assay; Q15056; inhibition, % at 35 µM;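 active means 50% or more with normal probe brightness, or confirmed in later tests; inconclusive means above 50% with abnormal brightness, or retests that disagree; inactive means below 50% or failed in later tests; about a fifth of its hits are not listed in these tables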;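 further: calls also rest on retests at 20 µM and on dose response follow-up; 0% = protein and probe with vehicle and 100% = probe without protein; strong numbers were not always called active; many hits fall short of the cut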
MT1-MMP act inh: inhibitors of human MT1-MMP activation; P50281; HT1080 RFP-PRO-GFP cells, GFP/RFP ratio fluorescence, overnight; percent of plate control window, DMSO zero; GFP/RFP ratio change, % at 20 µM; actives 0.061% (n = 360,000);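 active means GFP/RFP ratio change of at least 30% with cell ATP level not reduced by more than half and red fluorescence within 50% of control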; further: strong numbers were not always called active
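Test system: HT1080 cells expressing an RFP-PRO-GFP fluorescent reporter construct / Compound dosing: single-point 20 µM compound, 1% DMSO / Schedule: cells overnight before dosing, compound overnight, 37 °C, 5% CO2 / Evaluation: GFP/RFP fluorescence ratio / Control set: DMSO and RFP-L50D-GFP cell wells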
PABP polyA inh: blocks human PABP binding to poly(A) RNA; inhibition, % at 35 µM; fluorescence polarization; P11940; actives 1% (n = 290,000); AID 2014;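 active means 50% or more with normal probe brightness, or confirmed in later tests; inconclusive means above 50% with abnormal brightness, or retests that disagree; inactive means below 50% or failed in later tests; about a fifth of its hits are not listed in these tables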;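 further: calls also rest on retests at 20 µM and on dose response follow-up; controls were probe without protein and protein plus probe with vehicle; some compounds called inactive have numbers as strong as hits; many hits fall short of the cut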
Target sequence (P11940 whole entry, looked up): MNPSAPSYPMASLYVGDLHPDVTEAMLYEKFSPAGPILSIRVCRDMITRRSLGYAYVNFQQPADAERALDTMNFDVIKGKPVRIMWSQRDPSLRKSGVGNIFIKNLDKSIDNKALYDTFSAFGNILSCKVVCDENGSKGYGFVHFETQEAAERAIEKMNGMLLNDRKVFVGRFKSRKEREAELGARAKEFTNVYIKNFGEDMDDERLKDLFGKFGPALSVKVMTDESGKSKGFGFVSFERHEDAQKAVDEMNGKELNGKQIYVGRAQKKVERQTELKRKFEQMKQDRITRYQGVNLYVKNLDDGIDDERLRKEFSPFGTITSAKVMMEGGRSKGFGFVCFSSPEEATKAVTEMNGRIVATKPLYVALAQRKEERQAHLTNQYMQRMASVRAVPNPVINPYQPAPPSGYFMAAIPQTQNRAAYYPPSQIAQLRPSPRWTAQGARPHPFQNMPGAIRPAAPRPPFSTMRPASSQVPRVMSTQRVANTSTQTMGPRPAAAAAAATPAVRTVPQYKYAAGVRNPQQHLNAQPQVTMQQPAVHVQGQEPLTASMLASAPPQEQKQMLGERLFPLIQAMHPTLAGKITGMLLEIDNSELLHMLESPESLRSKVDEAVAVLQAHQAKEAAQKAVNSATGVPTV
HIV Env fusion: inhibitors of HIV Env-mediated cell fusion; HeLa-JRFL Env/CEM21 cell fusion, luciferase; inhibition, % at 12.3 µM; actives 1.1% (n = 360,000); AID 651610;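 active means mean replicate inhibition score of at least 50 and every replicate individually at or above 50; inconclusive means only one of the two criteria met; inactive means mean below 50 and not all replicates reaching 50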;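 further: 0% = plate neutral controls and 100% = maraviroc near 300 nM; one replicate is shown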
CSC inhib: blocks cancer stem cells; cancer stem cell-like cells viability, luminescence; inhibition, % at 7.5 µM; actives 1.1% (n = 300,000); AID 2717;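 active means mean at 75% or more and at least half the replicates too; inconclusive means mean and replicates disagree; tested in HMLE shEcad cells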;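 further: 0% = median of negative and 100% = median of positive control wells; the first replicate is given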
Rce1 inhib: inhibitors of yeast Ras-converting enzyme; actives 0.27% (n = 290,000); calls only; Q03530; yeast membranes, quenched prenylated peptide cleavage fluorescence;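 active means fall in fluorescence gain of 50% or more versus controls, with final raw signal at or below 3038400; inconclusive means same 50% fall but final raw signal above 3038400; inactive means fall in fluorescence gain under 50%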;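 further: plate controls were neutral control wells for no effect and wells lacking membranes for full effect; tested at 10 µM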
Target sequence (Q03530 whole entry, looked up): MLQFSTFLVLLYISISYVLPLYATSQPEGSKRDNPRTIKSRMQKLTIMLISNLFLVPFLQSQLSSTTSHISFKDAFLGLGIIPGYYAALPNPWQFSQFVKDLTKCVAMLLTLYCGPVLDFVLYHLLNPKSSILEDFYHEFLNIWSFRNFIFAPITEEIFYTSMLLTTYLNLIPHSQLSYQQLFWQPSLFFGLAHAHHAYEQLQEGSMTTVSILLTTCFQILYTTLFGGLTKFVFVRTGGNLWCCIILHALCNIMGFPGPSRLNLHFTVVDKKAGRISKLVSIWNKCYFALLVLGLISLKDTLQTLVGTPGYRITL
eIF4H FP inh retest: recorded beside eIF4H FP inh, whose call it bears; inhibition, %; compound at 20 µM; confirmation average;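 mean of two retest wells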
PABP polyA inh retest: also measured in PABP polyA inh; calls as there; inhibition, %; compound at 20 µM; confirmation repeats;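 mean of two retest wells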
MT1-MMP act inh RFP: second read-out of MT1-MMP act inh, no call of its own (marks repeat the call); RFP signal change, %; measured here: RFP expression control read;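 0 = vehicle wells; hits needed this value within 50% of zero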
Starred values were filed as active, the others as inactive; i = inactive; ? = inconclusive; nt = not tested or not shown.

SMILES	UUG fidelity	eIF4H FP inh	MT1-MMP act inh	MT1-MMP act inh RFP	PABP polyA inh	HIV Env fusion	CSC inhib	Rce1 inhib	others
O=C(COC(=O)C(O)C(O)C(=O)OCC(=O)c1ccc(C(F)(F)F)cc1)c1ccc(C(F)(F)F)cc1 (centres undefined)	-6	5	0	3	3	8	-7	i
Cc1ccnc(SCC(=O)c2cc3ccccc3o2)n1	-2	-5	0	3	11	-10	-7	i
S=C(NCCCc1cnc[nH]1)NCCCN(Cc1ccccc1)c1ccc(Br)cn1	-16	nt	4	-3	nt	26	nt	nt
O=C(c1ccc(COc2ccc3ccccc3c2)o1)N1N=C(C(F)F)CC1(O)C(F)F (centres undefined)	-6	2	6	-8	-9	nt	29	i
COc1ccc(-c2ccc(-c3noc(-c4ccccc4C)n3)c(OC)n2)cc1	-16	44	1	7	45	nt	-2	i
CCC(=O)Nc1nc2nc(-c3ccccc3)cc(-c3ccccc3)n2n1	-17	1	-1	-2	-2	-56	-2	i
Cc1ccc(CCNC(=O)CCNS(=O)(=O)c2ccc3c(c2)c(=O)n(C)c(=O)n3C)cc1	-4	6	-2	-1	-10	-30	-2	i
CC1(C)CC(=O)N(c2cccc(C(F)(F)F)c2)C(=O)C1	-5	-13	3	3	14	4	-5	i
O=c1c2cnn(-c3ccccc3)c2ncn1CCc1ccccc1	nt	0	6	-10	1	nt	40	i
O=C(NC(Cc1ccccc1)C(=O)NCc1ccccn1)c1ccco1 (centres undefined)	-17	12	5	4	4	-16	nt	i
O=C(COC(=O)c1cccc(O)c1)Nc1nnc(-c2ccccc2)o1	-16	nt	1	3	nt	-11	-9	i
O=C(O)c1ccccc1C(=O)Nc1ccc(-n2nc(C(F)(F)F)cc2C(F)(F)F)cc1	-6	2	1	-2	10	-3	-1	i
CCN(CC(=O)NCCc1ccccc1)S(=O)(=O)c1ccc(Br)cc1	-14	2	2	-4	-3	nt	nt	i
O=C(NCc1cccnc1)c1ccc(COc2ccccc2Cl)o1	nt	-10	2	-5	-1	6	-7	i
CC(=O)Nc1ccc(C(=O)Nc2nc(-c3cccnc3)cs2)cc1	-14	-8	-2	-5	-1	-6	nt	i
COc1ccc(C(=O)NNC(=O)Nc2ccc(C)cc2)cc1	nt	1	-1	3	-1	9	1	i
O=C(Nc1ccc2c(c1)OCO2)C1CC1(Cl)Cl (centres undefined)	-3	nt	-3	-4	nt	-12	nt	nt
S=C(NCCc1ccccc1)Nc1ccc(Br)cc1	nt	14	11	1	14	9	-3	i
COC(=O)c1ccccc1NC(=O)Cn1cnc([N+](=O)[O-])c1	-10	-6	1	0	-8	0	nt	i
Cc1csc(NC(=O)CCNC(=O)c2ccc([N+](=O)[O-])cc2)n1	-12	9	4	1	2	-23	-4	i
COCCOCC(O)CN1CCN(c2ccccc2)CC1 (centres undefined)	-1	0	2	4	18	nt	-4	i
CCOc1ccc(C(=O)N2CCN(C(=O)c3ccco3)CC2)cc1OCC	-15	8	7	3	10	nt	-12	i
O=C1CCCc2c1[nH]c1ccc(Br)cc21	-7	-8	0	-7	2	?	-11	i
CCc1noc(C)c1C(=O)Nc1cc(Cl)ccc1-n1cncn1	-11	nt	-3	-1	nt	-17	-8	i
Cc1ccc(C(=O)NCC(=O)OCCCOC(=O)CNC(=O)c2ccc(C)c(C)c2)cc1C	-21	nt	5	5	nt	5	nt	nt
COc1ccc(OC)c(-c2csc(NC(=O)C3CSC4(C)CCC(=O)N34)n2)c1 (centres undefined)	-13	nt	-2	-5	nt	12	11	i
Cn1nc(-c2ccccc2)c(CN2CCN(c3ncccn3)CC2)c1Cl	nt	-9	-3	-3	6	16	0	i
CCOc1ccc(C(=S)N2CCCC2)cc1OC	-24	76	2	4	1	-14	7	i	eIF4H FP inh retest=-15;PABP polyA inh retest=1
COc1ccc(Nc2nccc(-c3ccc([N+](=O)[O-])cc3)n2)cc1	5	-2	5	4	2	27	10	i
CC(=O)NCCn1c(SCC(=O)c2ccc(Cl)cc2)nc2ccccc2c1=O	-5	-16	-2	0	12	-35	6	i

2 successive records already listed:
SMILES	UUG fidelity	eIF4H FP inh	MT1-MMP act inh	MT1-MMP act inh RFP	PABP polyA inh	HIV Env fusion	CSC inhib	Rce1 inhib	others
COCCOCC(O)CN1CCN(c2ccccc2)CC1 (centres undefined)	-1	0	2	4	18	nt	-4	i
CCOc1ccc(C(=O)N2CCN(C(=O)c3ccco3)CC2)cc1OCC	-15	8	7	3	10	nt	-12	i

More entries
SMILES	UUG fidelity	eIF4H FP inh	MT1-MMP act inh	MT1-MMP act inh RFP	PABP polyA inh	HIV Env fusion	CSC inhib	Rce1 inhib	others
O=C(CCCOc1ccccc1)Nc1ccc(Cl)cn1	nt	-4	-1	-3	-5	-15	54	i
Cc1cc(NC(=O)c2c(F)cccc2Cl)n(-c2nc3ccccc3[nH]2)n1	-2	24	-7	-11	-1	nt	-11	i
O=C1NCCN1C(=O)c1cccc(Cl)c1	-9	-12	4	1	-8	nt	-13	nt
Cc1ccc(S(=O)(=O)n2cnc3ccccc32)cc1[N+](=O)[O-]	-17	-5	0	3	3	-11	-4	i
C=CCOC(=O)C1=C[C@H](C2CCCCC2)C[C@H](OCc2ccc(CO)cc2)O1	-28	nt	0	1	nt	10	-3	i
O=C(c1ccc(OC2CCN(CCc3ccccc3)CC2)cc1)N1CCCC(O)C1 (centres undefined)	8	3	1	3	-6	8	1	i
OCC1(Cc2ccc(Cl)cc2)CCN(Cc2ccc(F)c(F)c2)CC1	-6	6	8	0	0	4	30	i
CC(C)(C)OC(=O)N1CCN(C(=O)c2[nH]cnc2C(=O)Nc2ccccc2F)CC1	10	nt	1	2	nt	-10	nt	nt
Cc1ccc(S(=O)(=O)NNC(=O)Nc2cccc(F)c2)c(C)c1	-14	0	-1	0	-4	nt	nt	i
Cc1oc2cc3oc(=O)c(CCC(=O)NCc4ccccn4)c(C)c3cc2c1C	-18	-4	-1	-1	6	nt	6	i
CC(=O)N(CCCCN1C(=O)c2ccccc2C1=O)c1ccc(C)cc1	1	6	-2	0	2	-18	3	nt
CCc1cc(=O)oc2cc(C)cc(OCC(=O)C(C)(C)C)c12	nt	-12	3	-9	4	25	3	i
CC(CNC(=O)[C@@H](Cc1ccccc1)NC(=O)CC[C@H]1O[C@@H](n2ccc(=O)[nH]c2=O)[C@H](O)[C@@H]1O)c1ccccc1 (some centres undefined)	-12	nt	-1	2	nt	-8	nt	nt
CO/N=C/c1ccc(N2CCN(C(=O)c3ccc(Cl)cc3Cl)CC2)c([N+](=O)[O-])c1	-12	-5	5	-18	-6	78*	3	i
O=C(CCN1CCOCC1)N1CCCC(Nc2ccc(F)cc2)C1 (centres undefined)	-7	-13	1	4	7	-12	-2	i
CCOc1ccc(CCNC(=O)CS(=O)Cc2nc(-c3ccccc3C)oc2C)cc1OCC (centres undefined)	-5	-18	0	-7	-4	11	4	i
CCNC(=O)NC(=O)C(C)OC(=O)CCCc1nc2ccccc2s1 (centres undefined)	9	1	8	7	9	2	-14	i
COc1ccc(Cc2nnc(NC(=O)C(C)C)s2)cc1	5	-2	2	4	0	4	-6	i
CCCCn1c(N)c(N(CCOC)C(=O)COc2ccc(C(C)=O)cc2)c(=O)[nH]c1=O	-7	nt	3	3	nt	-5	-12	i
O=S1(=O)CC(N2CCN(CCO)CC2)CN1CCc1ccccc1 (centres undefined)	-24	nt	3	2	nt	4	nt	nt
COc1cc(O)cc(O)c1C(=O)/C=C/c1ccccc1	-7	1	-7	-19	11	nt	34	i
CC(NC(=O)Nc1nnc(C(F)(F)F)s1)(C(F)(F)F)C(F)(F)F	-12	-2	-11	-35	0	nt	2	i
O=C(Nc1cccc2c1C(=O)NC2=O)c1ccc(N2C(=O)CCC2=O)cc1	nt	5	0	-1	0	17	2	nt
CN(Cc1ccccc1)C(=O)c1ccc(NC(=O)Cc2ccc(NC(=O)C3CCN(S(=O)(=O)c4cccc([N+](=O)[O-])c4)CC3)cc2)cc1	-13	nt	0	-28	nt	-1	nt	nt
Cc1cc(C)cc(N(CC(=O)Nc2ccc(C(F)(F)F)cc2)S(=O)(=O)c2c(C)[nH]c(=O)[nH]c2=O)c1	2	-12	7	5	7	7	nt	i
O=C(CSc1nnc(-c2ccncc2)n1Cc1ccccc1)NCCc1ccccc1	-16	-8	2	3	-2	nt	-6	i
c1ccc(C2Nc3ccccc3C3OCCCC23)cc1 (centres undefined)	10	1	nt	nt	3	-7	13	i
C=CCc1c(C)nc(C)nc1N/N=C/c1ccc(N(C)C)cc1	-24	-8	4	4	-1	nt	9	i
Cc1ccc(S(=O)(=O)C2C(=O)NC3(C)CC2c2ccccc2O3)cc1 (centres undefined)	-5	0	-2	0	9	-5	-13	i
O=C(N/N=C/c1cccc(C(F)(F)F)c1)C1CCN(c2ncc(C(F)(F)F)cc2Cl)CC1	-10	-4	5	3	-8	-35	4	i
CCOc1ccc(S(=O)(=O)Nc2nc3cc(OC)ccc3s2)cc1	nt	-3	11	5	-3	nt	-3	i
CCCn1c(SCc2nc(N)nc(N3CCCCC3)n2)nc2c1c(=O)n(C)c(=O)n2C	nt	1	0	-2	?	-10	-11	i
O=C(Cc1ccc(Cl)cc1)OCC(=O)N1CCCCCC1	-14	nt	-1	0	nt	3	13	nt
Cc1c(CN(C)C(=O)CSc2nc(-c3ccco3)cc(C(F)(F)F)n2)cnn1C	-18	-3	-2	-6	10	-6	-13	nt
Cc1ccc(-n2cc(CNCC3CC(=O)N(C4CC4)C3)c(-c3cccc(C)c3)n2)cc1 (centres undefined)	nt	-6	3	-7	-2	?	-3	i
COc1ccccc1OCCn1cc(C#N)c2ccccc21	-14	4	2	2	2	nt	-1	i
O=C(CCCO)N/N=C/c1cc(Br)ccc1O	nt	7	1	2	9	4	-5	i
Cc1[nH]ccc(=O)c1OCC(=O)O	nt	-9	-4	0	5	-10	-4	i
COc1ccc(OC)c(C2C(C#N)=C(N)Oc3c2c(C)nn3-c2ccc(C)cc2)c1 (centres undefined)	-14	0	-4	-4	7	nt	4	i
C=CCSc1cc(C)nc2c(-c3ccccc3)cnn12	nt	-8	2	2	-14	-38	40	i
CCn1ncc(C2=NOC(C(=O)NCc3ccccc3)C2)c1C (centres undefined)	-3	-6	8	0	0	-177	69	i
O=C(CCSc1nnc(-c2ccco2)o1)Nc1ccc(F)cc1	nt	-2	0	-2	0	13	nt	i
CCCCc1ccc(NC(=S)N2CCN(C)CC2)cc1	-4	-4	4	-3	-8	4	-7	i
Cc1cccc(C(=O)OC(C)CN2C(C)CCCC2C)c1 (centres undefined)	-38	-2	-3	1	12	-6	-8	i
Cc1ccn2c(=O)nc(SCC(=O)c3ccccc3)nc2c1	-24	nt	-4	-1	nt	-20	-3	i
Cc1ccc(S(=O)(=O)N2CCN(C(C(=O)Nc3ccc(F)cc3)c3ccccc3)CC2)cc1 (centres undefined)	-11	-10	-9	-9	-2	-14	1	i
Nc1ccc2[nH]ncc2c1	-4	57*	0	-2	8.4*	nt	-8	i	eIF4H FP inh retest=95*;PABP polyA inh retest=79*
COc1cc(OC)cc(C(=O)c2c(C)c(C#N)c3ccccn23)c1	-9	4	-8	-16	2	-61	nt	i
CCCSc1nnc(N2C(=O)CC(c3ccsc3)C3=C2CCCC3=O)s1 (centres undefined)	-3	-8	1	-1	-15	1	-11	i
O=C(O)c1ccc(NCc2ccc3c(c2)OCO3)cc1	-12	4	2	6	-2	-19	1	i

Bioassay records (PubChem)

This is a subset, so the mix of outcomes need not match the whole.
